Screening results as filed in PubChem BioAssay.
NPYLR7 ag – mosquito NPYLR7 agonism; HEK293T NPYLR7/Galpha15, GCaMP6s calcium fluorescence; 0.15% of 270,000 active; activation, % at 10 µM; in the data active means activation above about 40%;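 further: 0% = vehicle and 100% = reference agonist at the receptor; some compounds past the cut are filed as inactive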
NPYLR7 ag max-min – second read-out of NPYLR7 ag, no call of its own (marks repeat the call); activation, %; measured here: Max-Min RFU normalised activation; some inactives read as strong as hits;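 span of the calcium signal over five minutes; 0% = vehicle and 100% = native peptide agonist; compound fluorescence can raise it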
* marks the source's active call; other numbers are inactive results; & = joins results of further samples. The list is partial (hit frequency here may not be typical).

Screening N#Cc1ccc(S(=O)(=O)Nc2c(F)cccc2N2CCCC2)cc1 returned NPYLR7 ag 7 and NPYLR7 ag max-min 3.
For CC(NC(=O)c1ccc2ncsc2c1)c1ccc(Br)cc1 (configuration not stated) the results were NPYLR7 ag 1 and NPYLR7 ag max-min 8.
For O=C(C1CCCC1)N1CCC2(CC1)SCCN2C(=O)CCc1ccccc1 the results were NPYLR7 ag 12 and NPYLR7 ag max-min 20.
`CC(C)N(CC(=O)Nc1cc(C(C)(C)C)nn1-c1ccccc1Cl)C(=O)c1ccc(Cl)c(Cl)c1` gave NPYLR7 ag 26 and NPYLR7 ag max-min 23.
Screening CC(C)N1CCn2nc(C(=O)N3CCC(Oc4ncccn4)CC3)cc2C1 returned NPYLR7 ag -1 and NPYLR7 ag max-min -3.
Screening Cc1c[nH]c(=O)n1-c1cccc(C#N)c1 returned NPYLR7 ag 9 and NPYLR7 ag max-min 6.
`Cc1c(CN(C)Cc2cnc(-c3cccc4ccccc34)nc2)cnn1C` gave NPYLR7 ag 9 and NPYLR7 ag max-min 7.
`CCOC(=O)c1c(N=CN(C)C)sc(C(=O)OC)c1C` gave NPYLR7 ag 0 and NPYLR7 ag max-min -2.
For O=S(=O)(NCCn1ncc2c(N3CCCC3)ncnc21)c1ccc(F)cc1 the results were NPYLR7 ag 4 and NPYLR7 ag max-min 2.
CN(C)Cc1ccc(C(=O)NC2CC2c2ccc(F)cc2)cc1 (configuration not stated) was read as NPYLR7 ag -21 and NPYLR7 ag max-min -24.
CCOc1ccccc1NC(=O)N1CCSC1c1cccc(Cl)c1 (configuration not stated) was read as NPYLR7 ag 17 and NPYLR7 ag max-min 20.
For COc1ccc(O)cc1CN1CCOC(C(F)(F)F)C1 (configuration not stated) the results were NPYLR7 ag 3 and NPYLR7 ag max-min 1.
Screening CCc1nc2ccc(C(=O)NC(C)(C)C)cn2c1N(C)C(=O)C1CCCCC1 returned NPYLR7 ag -5 and NPYLR7 ag max-min -10.
Screening CC(C)(C)c1cc(N)ncn1 returned NPYLR7 ag -2 and NPYLR7 ag max-min -5.
CCCCC(Nc1nccc(-n2cccn2)n1)C1CCC1 (configuration not stated) was read as NPYLR7 ag 4 and NPYLR7 ag max-min -3.
CN(Cc1ccc2nonc2c1)C(=O)CC1C(=O)NCCN1Cc1ccccc1 (configuration not stated) was read as NPYLR7 ag 2 and NPYLR7 ag max-min -1.
For CCCCN(C=O)c1c(CC)nc2ccc(C(=O)N(C)CCCN(C)C)cn12 the results were NPYLR7 ag 9 and NPYLR7 ag max-min -4.
`O=C(NCc1n[nH]c(=O)[nH]1)c1ccc(-c2ccccc2)cc1` gave NPYLR7 ag -2 and NPYLR7 ag max-min -2.
Cn1c(=O)c2c(SCC(=O)Nc3cccc(C(F)(F)F)c3)nc(C3CCCC3)nc2n(C)c1=O was read as NPYLR7 ag -3 and NPYLR7 ag max-min -9.
For Cc1cc(C)c(C#N)c(SCC(=O)N2CCOCC2)n1 the results were NPYLR7 ag 4 and NPYLR7 ag max-min 1.

Random excerpt: 4 records from the list
Screening Cc1c[nH]c(=O)n1-c1cccc(C#N)c1 returned NPYLR7 ag 9 and NPYLR7 ag max-min 6.
Cn1c(=O)c2c(SCC(=O)Nc3cccc(C(F)(F)F)c3)nc(C3CCCC3)nc2n(C)c1=O was read as NPYLR7 ag -3 and NPYLR7 ag max-min -9.
CN(Cc1ccc2nonc2c1)C(=O)CC1C(=O)NCCN1Cc1ccccc1 (configuration not stated) was read as NPYLR7 ag 2 and NPYLR7 ag max-min -1.
`CCOC(=O)c1c(N=CN(C)C)sc(C(=O)OC)c1C` gave NPYLR7 ag 0 and NPYLR7 ag max-min -2.

Additional records follow.
Cc1cccc(OCC(O)Cn2cnc3c(Cl)cc(Cl)cc3c2=O)c1 (configuration not stated) was read as NPYLR7 ag 11 and NPYLR7 ag max-min 9.
For O=C(NC1CC1)c1coc(CN(Cc2cccc(C(F)(F)F)c2)Cc2ccccc2F)n1 the results were NPYLR7 ag 11 and NPYLR7 ag max-min 6.
CCc1cccc(C)c1NC(=O)N(C)CC1CCCCC1 was read as NPYLR7 ag -1 and NPYLR7 ag max-min -1.
Screening CCOC(=O)c1nc2cc(C)c(C)cc2nc1N1CCN(C(=O)C(C)Cl)CC1 (configuration not stated) returned NPYLR7 ag -11 and NPYLR7 ag max-min -11.
CC=CC(=O)OCC(=O)Nc1sc(C)c(C)c1C(=O)OCC was read as NPYLR7 ag 9 and NPYLR7 ag max-min 9.
`CCCC(=O)OCC(O)CN(Cc1ccccc1Cl)CC1CC(c2ccc(F)cc2)=NO1` (configuration not stated) gave NPYLR7 ag -2 and NPYLR7 ag max-min 5.
Screening CC(C)=CC(=O)Nc1c(-c2ccc(Br)cc2)c(C)nn1C returned NPYLR7 ag 14 and NPYLR7 ag max-min 10.
`Fc1ccc(NC2CCCN(Cc3cccc4ncccc34)C2)cc1` (configuration not stated) gave NPYLR7 ag 6 and NPYLR7 ag max-min -2.
Screening Cn1nnc(-c2ccc(N)cc2)n1 returned NPYLR7 ag -9 and NPYLR7 ag max-min -10.
For CCCNC(=O)Cn1nc2c(c1NC(=O)C1CC1)CSC2 the results were NPYLR7 ag -11 and NPYLR7 ag max-min -15.
`COCc1nc(N2CCNCC2)c2c3c(sc2n1)CCCC3` gave NPYLR7 ag 2 and NPYLR7 ag max-min 9.
`COc1cc(NC(=O)CN2C[C@@H]3CC[C@@H]2C3)ccc1NC(=O)CC(C)C` gave NPYLR7 ag 1 and NPYLR7 ag max-min 2.
CCN(CC)C(=O)C1CCCN(C(=O)CCc2c(C)nn(-c3ccc(C)c(Cl)c3)c2C)C1 (configuration not stated) was read as NPYLR7 ag -3 and NPYLR7 ag max-min -9.
`Cc1ccsc1CN(Cc1ccc(F)cc1)C(=O)CN(C(=O)C(c1ccccc1)c1ccccc1)C1CC1` gave NPYLR7 ag 1 and NPYLR7 ag max-min -2.
Screening COc1ccc(Br)cc1-c1nc(CSc2nc(-c3ccncc3)cc(=O)[nH]2)c(C)o1 returned NPYLR7 ag -4 and NPYLR7 ag max-min -8.
`Cc1ccc(NCCNS(=O)(=O)c2ccccc2)nn1` gave NPYLR7 ag -14 and NPYLR7 ag max-min -22.
CCCSc1ncccc1C(=O)Nc1cccc(OC)c1 was read as NPYLR7 ag -6 and NPYLR7 ag max-min -14.
Cc1ccc(NC(=O)NC2CCC(C)CC2)cc1-n1cnnn1 (configuration not stated) was read as NPYLR7 ag 7 and NPYLR7 ag max-min 2.
`COCc1cc(C)nc2sc(C(=O)Nc3ccccc3N3CCOCC3)c(N)c12` gave NPYLR7 ag -9 and NPYLR7 ag max-min -14.
Screening CCOC(=O)[C@@H]1CN(C(=O)c2ccco2)[C@H]2c3cccc(F)c3O[C@@H]12 returned NPYLR7 ag -2 and NPYLR7 ag max-min 10.

3 compounds from above, ordered by formula weight, rising:
CCN(CC)C(=O)C1CCCN(C(=O)CCc2c(C)nn(-c3ccc(C)c(Cl)c3)c2C)C1 (configuration not stated) was read as NPYLR7 ag -3 and NPYLR7 ag max-min -9.
Screening COc1ccc(Br)cc1-c1nc(CSc2nc(-c3ccncc3)cc(=O)[nH]2)c(C)o1 returned NPYLR7 ag -4 and NPYLR7 ag max-min -8.
`Cc1ccsc1CN(Cc1ccc(F)cc1)C(=O)CN(C(=O)C(c1ccccc1)c1ccccc1)C1CC1` gave NPYLR7 ag 1 and NPYLR7 ag max-min -2.

Additional structures
For Ic1ccc(C=NNc2ccc(-n3ccnc3)nn2)o1 the results were NPYLR7 ag 10 and NPYLR7 ag max-min 18.
For Cc1ccccc1Cn1cnc2c(cnn2CCNC(=O)c2ccc3c(c2)OCO3)c1=O the results were NPYLR7 ag -4 and NPYLR7 ag max-min -12.
Screening Cc1nnc(-c2ccccc2-c2cc(F)cc3c2OC(CN)C3)s1 (configuration not stated) returned NPYLR7 ag -6 and NPYLR7 ag max-min -11.
CCc1cccc(CC)c1NC(=O)CSc1nncn1-c1cccnc1 was read as NPYLR7 ag 2 and NPYLR7 ag max-min 1.
Screening CC(=O)c1sc2nc(CSc3nnc(Cc4csc(C)n4)o3)[nH]c(=O)c2c1C returned NPYLR7 ag 3 and NPYLR7 ag max-min 7.
For O=c1c2ccccc2cnn1Cc1ccc([N+](=O)[O-])cc1 the results were NPYLR7 ag 11 and NPYLR7 ag max-min 22.
`Cc1cccc(CSc2nnc(CNS(=O)(=O)c3cccc(C(F)(F)F)c3)n2-c2ccc(Cl)cc2Cl)c1` gave NPYLR7 ag 10 and NPYLR7 ag max-min 4.
Screening CC(C)NS(=O)(=O)Cc1ccccc1CNC(=O)COc1ccccc1 returned NPYLR7 ag 2 and NPYLR7 ag max-min 1.
For O=C(CS(=O)Cc1cccc(F)c1F)NCc1ccccc1 (configuration not stated) the results were NPYLR7 ag 15 and NPYLR7 ag max-min 4.
`COC(=O)C1=C(C)NC(=S)NC1c1cccc(OC)c1OC` (configuration not stated) gave NPYLR7 ag 11 and NPYLR7 ag max-min 9.
Screening O=C(c1ccc(Br)cc1)N1CCC(C(=O)N2CCC(CCc3ccccc3)CC2)CC1 returned NPYLR7 ag 6 and NPYLR7 ag max-min 10.
`c1cc(N2CCOCC2)nnc1N1CCOCC1` gave NPYLR7 ag -1 and NPYLR7 ag max-min 0.
`Cn1ncc2c(Nc3ccc(F)cc3)nc(NCCN3CCOCC3)nc21` gave NPYLR7 ag 8 and NPYLR7 ag max-min 4.
`O=C(NC1CCCc2ccccc21)c1cc(N2CCc3ccccc3C2)nc2ccccc12` (configuration not stated) gave NPYLR7 ag 7 and NPYLR7 ag max-min 2.
For Cc1cccc(Nc2nc(-c3ccc(-c4ccc([N+](=O)[O-])cc4Cl)o3)cs2)n1 the results were NPYLR7 ag -4 and NPYLR7 ag max-min -1.
`O=C(CSc1cn(CC(=O)N2CCCC2)c2ccccc12)Nc1ccccc1` gave NPYLR7 ag -2 and NPYLR7 ag max-min -5.
Screening COc1ccc(NC(=O)C2CCN(C(=O)[C@H](C)NC(=O)C34CC5CC(CC(C5)C3)C4)CC2)cc1 returned NPYLR7 ag 28 and NPYLR7 ag max-min 27.
`CN(Cc1c(F)cccc1Cl)Cn1c(=O)[nH]c2ccccc21` gave NPYLR7 ag 14 and NPYLR7 ag max-min 18.
Screening Cc1nn(C)c(C)c1C(C)C(=O)N(C)Cc1cccc(Cl)c1Cl (configuration not stated) returned NPYLR7 ag -1 and NPYLR7 ag max-min -4.
O=C(NCC1CCCO1)c1ccc(-c2cc(-c3cccc(C(F)(F)F)c3)n[nH]2)cc1 (configuration not stated) was read as NPYLR7 ag -1 and NPYLR7 ag max-min -11.
`Cc1cc(C)n(-c2cccc(CN3CCCC(CO)(Cc4ccccc4F)C3)c2)n1` (configuration not stated) gave NPYLR7 ag 4 and NPYLR7 ag max-min 1.
`COc1ccc(-c2ccc(C=C3C(=O)NC(=O)NC3=O)o2)cc1` gave NPYLR7 ag -2 and NPYLR7 ag max-min -8.
For CC(C)(C(=O)N1CCC2(CCNC(=O)CC2)CC1)c1ccccc1 the results were NPYLR7 ag 7 and NPYLR7 ag max-min 8.
Screening CC(C)(C)NC(=O)NC(=O)CNc1c(F)cccc1N1CCCC1 returned NPYLR7 ag 4 and NPYLR7 ag max-min 1.
C=CCOCC(O)CN(Cc1c(-c2ccccc2)nn(C)c1N(C)C)CC(C)C (configuration not stated) was read as NPYLR7 ag -5 and NPYLR7 ag max-min 9.
For O=C(CC1C(=O)NCCN1Cc1c(F)cccc1Cl)NCc1ccc2ncccc2c1 (configuration not stated) the results were NPYLR7 ag 14 and NPYLR7 ag max-min -2.
Cc1cc(-c2c(-c3ccccc3)ncn2Cc2cn3c(C)cccc3n2)n[nH]1 was read as NPYLR7 ag -4 and NPYLR7 ag max-min -15.
`Cc1ccc(F)cc1NS(=O)(=O)N(C)C(C)C1CC1` (configuration not stated) gave NPYLR7 ag -4&0 and NPYLR7 ag max-min -3&2.
For CC(C)(C)c1ccccc1OCC(=O)NCCC(=O)O the results were NPYLR7 ag 4 and NPYLR7 ag max-min 3.
`COC(=O)CSc1nc2nc3c(cn2n1)C(=O)CC(c1ccccc1)C3` (configuration not stated) gave NPYLR7 ag 19 and NPYLR7 ag max-min 9.
Screening Cc1cc(C)cc(CC(=O)N2CCC2(C)C(=O)NS(=O)(=O)c2cccc(F)c2)c1 (configuration not stated) returned NPYLR7 ag 4 and NPYLR7 ag max-min 2.
For Clc1cc2c(cc1NCc1cn3cccnc3n1)OCCO2 the results were NPYLR7 ag -1 and NPYLR7 ag max-min 41.
For COc1ccc(NC(=O)C2CCN(C(=O)CCNC(=O)c3cc(C)nn3C)CC2)cc1 the results were NPYLR7 ag -11 and NPYLR7 ag max-min -3.
For CCn1cc(C(=O)NCC(C)C)c2nn(-c3ccccc3)c(=O)c-2c1 the results were NPYLR7 ag 6 and NPYLR7 ag max-min 7.
For CC(C(=O)NC1CC1)N1CCN(C(=O)/C=C/c2ccc(C(F)(F)F)cc2)CC1 (configuration not stated) the results were NPYLR7 ag 11 and NPYLR7 ag max-min 5.
`O=C(NCc1cccs1)c1ccc(-c2cc(-c3ccc(Cl)cc3)[nH]n2)cc1` gave NPYLR7 ag 16 and NPYLR7 ag max-min 12.
Screening Cc1c(-c2ccc(Cl)cc2)c(=O)oc2c3c(ccc12)OCN(CCCN1CCOCC1)C3 returned NPYLR7 ag 5 and NPYLR7 ag max-min 5.
Screening C=CCn1c(SCC(=O)N2CCCC2)nc2sc3c(c2c1=O)CCC3 returned NPYLR7 ag -8 and NPYLR7 ag max-min -11.
`Cc1[nH]nc(CCC(=O)N2CCCC(O)(CO)CC2)c1C` (configuration not stated) gave NPYLR7 ag 3 and NPYLR7 ag max-min 1.
